High-throughput results (PubChem BioAssay)
Menin MLL FP FL = displaces fluorescein MLL peptide from human menin | Fluorescence polarization, fluorescein-MLL peptide displacement from menin | FP activity change, % at 61.4 µM | 290,000 tested, under 10 active | AID 1766; inconclusive = falling polarisation curve, or a change in total fluorescence; inactive = total fluorescence flat and polarisation flat or rising; no compound was filed as active; the % refers to the polarisation; negative = inhibition;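 also: % of control where 0% means no effect; inhibitors lower the polarisation; unlabelled MLL peptide was the positive control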
gsp agonist = gsp mutant agonism; gsp mutant cells, cAMP HTRF, 30 min; control for the full effect not named in the record; Potency, µM (titrated, usually from 76.9 µM), for inactives: at the top dose activation (cAMP increase), usual class: activators; 0.13% of 340,000 active; AID 624287; active = well fitted activation curve with a large enough effect; inconclusive = small, poorly fitted or top-dose-only effect, or another doubt; inactive = no such curve, though single readings can be large or run the other way; cell line not stated here;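 also: phosphodiesterase inhibitor Ro 20-1724 added with compounds to block cAMP breakdown; potency is read from the fitted curve at half-maximal effect; nearly all actives have a fitted effect of over 60% in size; about a fifth of the inactives were tested at one dose only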
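Cells stably selected in G418 were plated at 2000/well, grown 16-24 hr, then given compounds in DMSO with the PDE inhibitor […] (300 uM solution added) for 30 min at 37C; cAMP was read by HTRF.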
TRPML1 inh = inhibitors of human TRPML1 channel; Q9GZU1; TRPML1-inducible cells, Ca2+ dye fluorescence, FDSS; hits give low values; inhibition of EC80 agonist-evoked calcium signal; activity change, negative = inhibition, % (concentration not given with the values); 0.02% of 390,000 active; AID 624415; in the data active means activity change below about -50%; inconclusive means about -30% to -50%; inactive means above about -30%;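 also: stimulus is agonist 54-4 at its EC80 concentration; % is scaled to controls: 0 for no effect and ±100 for the full control effect; compound concentration not given in the record; the text of the record puts the active cut at -80%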
Target sequence (Q9GZU1 whole entry, looked up): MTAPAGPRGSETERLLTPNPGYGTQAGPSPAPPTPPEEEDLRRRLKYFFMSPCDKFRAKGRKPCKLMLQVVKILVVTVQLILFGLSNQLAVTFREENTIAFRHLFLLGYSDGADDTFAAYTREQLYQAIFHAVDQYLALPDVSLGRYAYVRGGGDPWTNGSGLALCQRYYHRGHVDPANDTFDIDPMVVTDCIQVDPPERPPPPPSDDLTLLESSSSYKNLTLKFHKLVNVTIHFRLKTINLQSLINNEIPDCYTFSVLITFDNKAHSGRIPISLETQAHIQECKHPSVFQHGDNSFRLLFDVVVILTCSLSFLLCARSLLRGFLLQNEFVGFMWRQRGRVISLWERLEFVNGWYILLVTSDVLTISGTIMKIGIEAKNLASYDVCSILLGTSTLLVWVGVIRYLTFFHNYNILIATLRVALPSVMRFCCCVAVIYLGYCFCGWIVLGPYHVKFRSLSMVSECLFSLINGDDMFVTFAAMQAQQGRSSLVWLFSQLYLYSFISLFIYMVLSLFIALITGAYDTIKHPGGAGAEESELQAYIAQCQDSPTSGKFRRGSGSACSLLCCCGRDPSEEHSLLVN
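TRPML1-DL cells, Tet-induced overnight (~16 h, 37 °C) at 1,500 cells/well, were loaded with Ca8 no-wash dye plus quencher for 45-90 min at room temperature. Compounds were pinned during FDSS kinetic reading; agonist 54-4 at EC80 (4 uM final) then added.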
TRPML1 ag = human mucolipin-1 channel agonism. Q9GZU1. TRPML1-expressing cells, Ca2+ dye fluorescence, FDSS; host cell line not named in the record; reference of the full effect not given here. activation, % (test concentration not listed). 0.12% of 410,000 active. AID 624414; in the data active = activation above about 50%; inconclusive = about 30% to 50%; inactive = below about 30%; also: 0% is about no effect; the text of the record puts the active cut at 80%
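Tetracycline-induced TRPML1-DL cells are seeded and incubated overnight before loading with a no-wash Ca2+ dye and quencher. Agonist activity is taken from the 110 s fluorescence read following compound pin-transfer on an FDSS, before EC80 54-4 challenge.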
gsp antag = gsp mutant antagonism. AID 624288. gsp-mutant cells, cAMP HTRF, 30 min; control for the full effect not named in the record. 0.4% of 340,000 active. Potency, µM (highest dose often 76.9 µM), inactives show at the top dose activity change, negative = inhibition, most hits filed as inhibitors; active = falling curve of any shape with a large fitted effect; inconclusive = falling curve, mostly with a smaller effect; inactive = flat or rising curve; cell line not stated here;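 also: intracellular cAMP measured with PDE inhibitor Ro 20-1724 present during compound exposure; potency is read from the fitted curve at half-maximal effect; % is scaled to controls: 0 for no effect and ±100 for the full control effect; nearly all actives have a fitted effect of over 65% in size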
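HTRF cAMP read-out (cAMP-d2 plus anti-cAMP antibody-K in lysis buffer, 30 min RT). Before lysis, cells are exposed to compounds with […] for 30 min at 37C in DPBS containing Ca/Mg, BSA and Tween 20.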
ClpP mod = qHTS Assay for Activators of ClpP; purified B. subtilis ClpP, FRET peptide cleavage, 20 min; Potency, µM (series often up to 57.5 µM), without a hit: at the top dose activity change, negative = active; 1.9% of 340,000 active; ATP-dependent Clp protease proteolytic subunit (Bacillus subtilis (strain 168)), P80244; active = well fitted falling curve with a large enough effect; inconclusive = small, poorly fitted or top-dose-only effect; inactive = no such curve, though single readings can be large or run the other way; also: potency is read from the fitted curve at half-maximal effect; the source files actives as falling curves though it sought activators and does not explain the sign; nearly all actives have a fitted effect of over 65% in size; many hits overshoot -100%
Target sequence (P80244 whole entry, looked up): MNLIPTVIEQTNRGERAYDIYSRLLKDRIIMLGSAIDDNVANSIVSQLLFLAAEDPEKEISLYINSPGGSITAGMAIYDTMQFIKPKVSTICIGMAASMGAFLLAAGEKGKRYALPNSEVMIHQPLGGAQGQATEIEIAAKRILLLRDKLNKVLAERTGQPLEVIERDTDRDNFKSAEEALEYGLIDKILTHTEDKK
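Buffer: 100 mM Tris/HCl pH8, 100 mM KCl, 0.05% low protease BSA, 2.5% glycerol, 0.01% Tween-20. ClpP 10 microg/mL final; 20 min RT; delta FRET normalized to ADEP and DMSO controls.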
Starred values were filed as active, the others as inactive; ? = inconclusive; nt = no result given; & = joins results of further samples; [ ] = dose if it differs, or a comment.

SMILES	Menin MLL FP FL	gsp agonist	TRPML1 inh	TRPML1 ag	gsp antag	ClpP mod
CCC(=O)NC(=S)NNC(=O)c1ccccc1[N+](=O)[O-]	-1.0	?	21	0.3	3%	-1.5%
COc1ccc(/C(O)=C2/C(=O)C(=O)N(CCN3CCNCC3)C2c2cccc([N+](=O)[O-])c2)cc1 (configuration not stated)	3.0	13%[15.4 µM]	-11	0.5	8%	-22%
COc1ccc(/C=N/c2oc(C)c(C)c2C#N)c(OC)c1	0.7	-11%[15.4 µM]	3	-0.7	16%	nt
CCc1noc(N)c1C(=O)Nc1ccc(Cl)cc1	8.1	-27%	-8	-0.5	-2%	-2.7%
O=C(CCc1ccccc1)c1ccc2c(c1)OCCCO2	3.4	6%	-7	-0.2	-13%	-10%
Cc1ncc(CO)c(/C=N/NC(=S)Nc2cccc(Cl)c2)c1O	?	-38%[inhibitor]	2	1.5	1%	4.3%
CC1CN(S(=O)(=O)c2cccc(C(=O)NCCC3=CCCCC3)c2)CC(C)O1 (configuration not stated)	nt	-4%	4	0.0	2%	-2.6%
COc1ccc(S(=O)(=O)N2CCCCCC2)cc1N	-1.4	6%[15.4 µM]	-11	-0.8	-8%	nt
Cc1nn(CC(=O)Nc2nnc(C(C)C)s2)c(=O)c2ccccc12	-2.9	-52%[inhibitor]	-5	0.5	-8%	-1.6%
COc1ccccc1N(C)S(=O)(=O)c1ccc(Cl)c(C(=O)NCC2(N(C)C)CCCCC2)c1	nt	11%[15.4 µM]	42	-0.3	-2%	nt
C=CCn1c(N/N=C/c2ccc(O)cc2)nc2ccccc2c1=O	0.3	-32%	19	1.9	-9%	0.4%
COc1ccc(C(=O)Nc2ccc(S(=O)(=O)N3CCCCC3C)cc2)c(OC)c1OC (configuration not stated)	0.1	-73%[inhibitor]	37	2.2	9%	?
Cc1nc(SC2CC(=O)N(c3cc(Cl)cc(Cl)c3)C2=O)nc2c1CCCC2 (configuration not stated)	0.0	-32%[inhibitor]	9	0.5	-22%	0.9%
CCCCc1ccc(NC(=O)COc2cccc3c(=O)n(C)ccc23)cc1	nt	nt	11	2.0	nt	-12%
COc1ccc(C2C(C(=O)Nc3cccnc3)=C(C)Nc3nc(-c4ccccc4)nn32)cc1OC (configuration not stated)	nt	nt	2	-0.4	nt	0.4%
Cc1cccc(C)c1NC(=O)C1CCCNC1 (configuration not stated)	0.8	5%	-2	0.0	-5%	0.8%
Cc1ccccc1C(=O)NCCc1sc(-c2ccc(Cl)cc2)nc1C	nt	nt	0	0.4	nt	?
CCN(CC(=O)Nc1ccc(NC(C)=O)cc1)C(=O)CCCc1c[nH]c2ccccc12	nt	-4%	4	1.9	12%	-3.5%
CC(=O)c1cccc(NC(=O)C2CCCN(c3nnc(-n4cccc4)s3)C2)c1 (configuration not stated)	nt	nt	-13	1.2	nt	0.4%
Cc1ccc(-c2csc(-c3c(N)c(C(=O)c4ccc5c(c4)OCO5)n4ccccc34)n2)cc1C	nt	nt	7	1.0	nt	-7.6%
O=C(CSc1nnc(COc2ccccc2)o1)Nc1cc(C(F)(F)F)ccc1Cl	nt	nt	23	1.0	nt	1.9%
COc1cc(OC)cc(C(=O)Nc2ncn[nH]2)c1	nt	2%	7	-0.3	11%	-2.0%
CC(=O)Nc1ccc2c(c1)c1ccccc1n2C(C)=O	4.7	-1%[15.4 µM]	-3	-0.7	-3%	-0.8%
Cc1ccc(Cc2nc3ccccc3nc2SCC(=O)N2CCN(c3ccc(F)cc3)CC2)cc1	nt	nt	6	2.1	nt	0.4%
CNC(=O)CN(c1cccc2ccccc12)S(C)(=O)=O	-0.2	-15%	1	-1.0	3%	0.6%

In a second layout: entries from further up
The line under a structure holds: Menin MLL FP FL	gsp agonist	TRPML1 inh	TRPML1 ag	gsp antag	ClpP mod
Cc1nn(CC(=O)Nc2nnc(C(C)C)s2)c(=O)c2ccccc12
    -2.9	-52%[inhibitor]	-5	0.5	-8%	-1.6%
COc1ccccc1N(C)S(=O)(=O)c1ccc(Cl)c(C(=O)NCC2(N(C)C)CCCCC2)c1
    nt	11%[15.4 µM]	42	-0.3	-2%	nt

Additional records.
SMILES	Menin MLL FP FL	gsp agonist	TRPML1 inh	TRPML1 ag	gsp antag	ClpP mod
COc1cccc2cc(C(=O)Nc3ccccc3C)/c(=N/O)oc12	-8.3	0%	1	0.8	-28%	0.4%
CC(C)Oc1ccc(C2C(C#N)=C(N)Oc3c2oc(CO)cc3=O)cc1 (configuration not stated)	4.2	8%[15.4 µM]	8	-0.7	8%	4.2%
COc1cc(-c2nc3ccccn3c2NCC2CCCO2)ccc1O (configuration not stated)	1.3	?	-6	0.1	-4%	25µM*
COC(=O)C1=NN(c2ccccc2)C2(S1)SC(C(C)=O)=C(C)N2c1ccccc1 (configuration not stated)	-1.3	-8%	28	2.1	?	1.2%
Cc1ccc(S(=O)(=O)N2CCN(C(=O)CSc3nnnn3C)C2)cc1	5.4	-63%[inhibitor]	-8	-0.4	-18%	0.3%
COc1ccc(NS(=O)(=O)c2cc3[nH]c(=O)c(=O)[nH]c3cc2C)cc1Cl	nt	nt	2	3.4	nt	-7.6%
CCc1ccc(-c2cc(C)no2)cc1S(=O)(=O)NCc1ccc(OC)c(OC)c1	nt	-5%	-13	-0.2	3%	nt
COc1cccc(C(NC(C)=O)c2ccc3cccnc3c2O)c1 (configuration not stated)	-4.5	1%	16	-0.1	2%	nt
CC(NC(=O)Cn1ccsc1=N)C12CC3CC(CC(C3)C1)C2 (configuration not stated)	0.4	-8%	0	0.5	-1%	4.1%
Cc1cc2nc(-c3cccc(NC(=O)COc4ccc(C(C)C)cc4)c3)oc2cc1C	nt	nt	36	-0.5	nt	?
CC(NC(=O)c1ccco1)C(=O)N1CCN(c2cccc(Cl)c2)CC1 (configuration not stated)	nt	?	-1	3.6	-3%	-2.6%
O=C1NC(=O)C2(COC(c3ccccc3Cl)OC2)S1 (configuration not stated)	1.2	-4%	3	0.5	-17%	-2.6%
CCNC(=S)NC1CC2CCCC(C1)N2Cc1ccco1 (configuration not stated)	3.2	-1%	7	0.4	3%	-1.0%
Cc1ccc(C(C(=O)NC(C)(C)C)N(CC2CCCO2)C(=O)CCC(=O)Nc2ccccn2)cc1 (configuration not stated)	nt	-5%[15.4 µM]	0	-0.5	0%	-0.3%
CCN(C(=O)C1CCC(CNS(=O)(=O)c2cccc3nsnc23)CC1)c1ccccc1 (configuration not stated)	nt	nt	-12	-1.0	nt	1.7%
CCOC(=O)[C@H]1[C@H]2COc3ccc(Cl)cc3[C@@H]2N2C(=O)c3cc(F)ccc3NC(=O)[C@@]12C	nt	nt	8	-0.3	-19%	-3.1%
Cc1cc(Br)ccc1NC(=O)C(NS(=O)(=O)c1cccs1)c1ccccc1 (configuration not stated)	nt	nt	7	5.1	nt	-0.2%
C=CCC[C@H](Cc1ccc(F)cc1)C(=O)OC[C@@H](C)NC(=O)[C@H](CC=C)CC(=O)NCCO	nt	-6%	10	0.1	0%	-3.3%
CCCCCSc1nncc(=O)[nH]1	1.0	-12%	-7	0.8	-9%	-2.2%
O=S(=O)(c1ccc(NCCOCCO)nc1)N1CCCCC1	nt	24%	1	0.0	-3%	?
COc1cccc(-n2c(SCC(=O)c3ccccc3)nc3c([nH]c4ccccc43)c2=O)c1	nt	nt	-6	0.5	nt	-1.4%
CC(OC(=O)Cc1c(F)cccc1Cl)C(=O)NC1CCCCC1C (configuration not stated)	nt	-15%	13	-0.8	2%	-1.6%
Cc1cc(NC(=O)c2cccnc2)ccc1NC(=O)c1cc2ccccc2o1	-1.4	-7%	-1	0.8	?	8.7%
Cc1cccc(CN(C)C)c1CC(O)(c1ccccc1)c1ccccc1	nt	9%	2	2.5	-2%	-2.4%
C/C(=N\Nc1ccccn1)c1ccc(C#N)cc1	-0.7	2%[15.4 µM]	2	-0.5	10%	nt
SMILES	Menin MLL FP FL	gsp agonist	TRPML1 inh	TRPML1 ag	gsp antag	ClpP mod
NS(=O)(=O)c1ccc(CNC(=O)c2cc(-c3cccnc3)nc3ccccc23)cc1	0.6	-12%[15.4 µM]	81	-1.2	6%	-1.1%
COC(=O)c1c(NC(=O)/C=C/C(=O)O)sc(Cc2ccccc2)c1C	5.8	-4%	-16	0.4	2%	-1.0%
CC(C)CCNC(=O)COc1ccc2c(c1)C(=O)CC(C)(C)O2	-0.6	8%	4	0.2	4%	28µM*
CCOC(=O)C1(C)Oc2ccccc2C(C(=O)OC)=C1C(=O)OC (configuration not stated)	-0.3[94.6 µM]	nt	-4	-0.1	6%	-0.7%
COCCCNC(=S)N1CCC(NC(=O)Nc2ccc(C)cc2)CC1	-2.3	-3%[15.4 µM]	18	-0.2	nt	nt
COc1ccc(NC(=S)Nc2ccc3snnc3c2)cc1	7.7	-9%[15.4 µM]	15	-0.5	-1%	nt
O=C1CC2(CCN(C(=O)c3cccc(Br)c3)CC2)Oc2ccccc21	nt	-13%[15.4 µM]	12	0.0	?	?
C=CCn1c(N)c(C(=O)NCc2cccnc2)sc1=S	-0.8	17%	-2	0.4	4%	-5.4%
CCOc1ccc(CCNC(=O)C2=C(C)C(=O)OC23CCC(C)CC3)cc1 (configuration not stated)	0.3	22%	-2	0.3	-10%	1.3%
CC(=O)c1cccc(NS(=O)(=O)c2cc3c(cc2C)N(C(C)=O)CCO3)c1	-2.0	?	-8&-9	-0.6&-0.6	14%	-1.0%&36%
Cn1nc(C(F)(F)F)c(/C=N/OC(=O)c2ccccc2Cl)c1SCc1ccc(Cl)cc1	1.9	-1%	17	1.8	-9%	-1.6%
CCOc1ccccc1NC(=O)C(NC(=O)C1CCC(C)CC1)C(C)C (configuration not stated)	0.5	-41%[inhibitor]	nt	nt	4%	-1.6%
O=C(CCc1nc(-c2ccccc2)no1)NCC1CCCO1 (configuration not stated)	3.5	-5%	-10	-0.4	1%	-11%
CCCCSc1nc(C)c(C(C)=O)cc1C#N	0.4	4%	7	2.7	-14%	-1.9%
COc1ccc(NC(=O)CSc2nc3ccccc3nc2Cc2ccc(C)cc2)cc1Cl	nt	nt	-14	-0.2	nt	-0.7%
CCCC(/C=C/c1ccc(OC(C)=O)cc1)=C1/c2ccccc2C(=O)N1c1ccccc1	nt	-43%[inhibitor]	-13	0.5	-9%	4.5%

The order is random. About 2.1% of those tested had a hit in this group.
